Source: PubChem
Vaccinia mCherry – inhibitors of vaccinia virus infection (mCherry reporter signal). Potency, µM (series often up to 36.5 µM), without a hit: at the highest dose activity change, negative = inhibition, usual class: inhibitors. 310,000 tested, 0.63% active. Vaccinia virus mCherry reporter infection, fluorescence; about a quarter of the inactives have no number; active = well fitted inhibition curve with a large enough effect; inconclusive = small, poorly fitted or top-dose-only effect; inactive = no such curve, though single readings can be large or run the other way; tested in A549 cells; also: nearly all actives have a fitted effect of over 35% in size; inactives centre near -10
VACV Venus inh – inhibitors of vaccinia virus (Venus reporter) | 330,000 tested, 0.46% active | Potency, µM (doses to about 36.5 µM), inactives show top-dose activity change, negative = inhibition, usual class: inhibitors | Vaccinia virus Venus reporter expression, fluorescence; active means well fitted inhibition curve with a large enough effect; inconclusive means small, poorly fitted or top-dose-only effect; inactive means no such curve, though single readings can be large or run the other way; tested in A549 cells; also: nearly all actives have a fitted effect of over 30% in size; inactives centre near -10
An asterisk follows results filed as active; i = inactive; u = inconclusive; x = no result given; & = joins results of further samples; [ ] = another dose, or the depositor's remark. % is scaled to controls: 0 for no effect and ±100 for the full control effect; potency is read from the fitted curve at half-maximal effect.

SMILES | Vaccinia mCherry | VACV Venus inh
COc1cccc(CSc2nc(N)cc(N)n2)c1 | -3% | -4%
O=C(COC(=O)/C=C/c1cc(Br)ccc1F)NC1CC1 | -9% | -4%
CC(=O)Oc1c(C(=O)c2nnc(C)o2)c(=O)n(Cc2ccccc2)c2ccccc12 | -17% | u
CCOC(=O)c1sc2ccccc2c1S(=O)(=O)Nc1cc(OC)ccc1OC | -8% | 3%
Cc1nnc(SCC(=O)N2CCN(S(=O)(=O)c3ccccc3)CC2)[nH]c1=O | x | 6%
Cc1cc(Oc2c(C(F)(F)F)oc3c(CN4CCC(C)CC4)c(O)ccc3c2=O)cc(C)c1Cl | -4% | -1%
CN(C)/C=C(\C#N)C(=O)N/N=C/c1ccc(Cl)cc1 | i | 2%
OC(c1ccc(F)cc1)C(CN1CCOCC1)c1ccccc1 (stereo not drawn) | -2% | -15%
Cc1ccc(C)c(C(=O)COC(=O)CN2C(=O)C3C4CCC(C4)C3C2=O)c1 (stereo not drawn) | 4% | -13%
CCC(C)NCCOc1cc(C)cc(C)c1C (stereo not drawn) | 0% | -6%
COC(=O)c1cc(C)nc2c1c(=O)nc(SCc1cc(C)ccc1C)n2C1CC1 | -4% | -2%
C[C@H](CO)N1C[C@H](C)[C@@H](CN(C)S(C)(=O)=O)Oc2ccc(NC(=O)CCC(F)(F)F)cc2C1=O | i | -5%
COC(=O)C1CCN(C(=O)Cc2ccc(OC)c(OC)c2)CC1 | -8% | -10%
C=CCOc1ccccc1/C=c1\sc2nc(=O)c(C)nn2c1=O | -5% | -11%
Cc1nc2ccccc2c2oc(C(=O)NCC3COc4ccccc4O3)cc12 (stereo not drawn) | u | -16%
C[C@H](CO)N1C[C@H](C)[C@@H](CN(C)Cc2ccncc2)Oc2ncc(Br)cc2C1=O | -13% | 9%
COC(=O)c1c(=O)n(O)c2ccc(OC)cc2[n+]1[O-] | x | -12%
Cn1c(CSCc2ccc(Cl)c(Cl)c2)nnc1SCC(=O)Nc1nccs1 | -13% | -27%
COC(=O)C1=C(C)NC2=C(C(=O)CCC2)C1c1cn(Cc2ccc(Cl)cc2Cl)nc1-c1ccccc1 (stereo not drawn) | -16% | -20%
CC(C)(C)c1ccc(O)c(N=Cc2c(O)ccc3ccccc23)c1 | u | -26%
O=C1CC(C(=O)N2CCOCC2)C2(CCCCC2)O1 (stereo not drawn) | 22% | 34%[activator]
COc1ccc(Nc2c(CC(C)C)nc3nc(C)cc(C)n23)cc1 | i | -13%
CC(C)(C)NC(=O)C(c1ccncc1)N(C(=O)c1csnn1)c1cccc2ccccc12 (stereo not drawn) | -15% | -2%
COc1ccc(N(C(=O)c2snc(C(N)=O)c2N)C(CC(C)C)C(=O)NCC2CCCO2)cc1 (stereo not drawn) | i | 0%
CC(C)COc1ccccc1C1CC(=O)Nc2cc3c(cc21)OCO3 (stereo not drawn) | u | u
Cc1c(N=C2C=CC(=O)c3ccccc32)c(=O)n(-c2ccccc2)n1C | u | u
O=C1NCCN1CCNS(=O)(=O)c1ccc(F)cc1 | -13% | -9%
CNC(=S)N1CCN(c2ccccn2)CC1 | -4% | 2%
COC(=O)CN(c1ccc(OC)cc1)S(=O)(=O)c1ccc(OC)c(OC)c1 | -22% | -7%
C=CCNC(=S)NNC(=O)c1cc(Cl)ccc1OC | -11% | -5%
Cc1nc(CC(=O)Nc2cccc(C)c2C)cs1 | 3% | -5%
CN(C(=O)c1cc(S(=O)(=O)N2CCc3ccccc32)cn1C)C1CCCCC1 | 0% | -4%
Clc1cccc(CN2CCN(Cc3nc(CCc4ccccc4)no3)CC2)c1 | -18% | -7%
COc1ccccc1NC(=O)c1c(Nc2ccccc2F)sc(C(=O)Nc2cccc(Cl)c2)c1N | -16% | -4%
COc1ccc(/C=C/C(=O)NC(=S)N2CCN(c3ccccn3)CC2)cc1OC | -5% | -23%
CCOC(=O)C1CCN(c2nc3c(S(=O)(=O)c4ccccc4)nnn3c3ccc(Cl)cc23)CC1 | -17% | -9%
COc1ccc(C2=Nc3ccccc3N(C(=O)c3ccc4c(c3)OCO4)C2C(=O)NCc2ccccc2)cc1 (stereo not drawn) | u | -15%
C[C@@H]1CN([C@H](C)CO)C(=O)Cc2cc(NC(=O)Nc3ccccc3)ccc2O[C@@H]1CN(C)Cc1ccc2c(c1)OCO2 | u | 28µM*
COc1ccc(CNc2nn[nH]n2)cc1OC | -11% | -9%
O=C(CN(Cc1ccccc1)S(=O)(=O)c1ccc(Cl)cc1)NCC1CCCO1 (stereo not drawn) | 7% | -8%
COCCOc1cc(N)c(Cl)cc1Cl | -6% | -2%
Cc1cccc(C(=O)NCc2nnc(SC(C)C(=O)Nc3nnc(C)s3)n2C)c1 (stereo not drawn) | -27% | -18%
COc1ccc(/C=N/NC(=O)c2ccc(Cn3cc([N+](=O)[O-])cn3)o2)cc1O | x | 0%
Cc1ccc(S(=O)(=O)c2nnn3c2nc(NC2CCCCCC2)c2sccc23)cc1C | -17% | u
O=C(NC1CCCC1)C(c1ccncc1)N(C(=O)c1csnn1)C1CCCC1 (stereo not drawn) | i | 5%
O=C(Nc1ccc(Cl)c(S(=O)(=O)N2CCOCC2)c1)[C@@H]1CCCN1C(=O)c1cccs1 | -26% | -10%
CCc1ccccc1NC(=O)CSc1nnc(-c2nonc2NC(C)=O)n1C | -4% | -4%
COC(=O)C1=C(C)NC(=S)NC1c1ccco1 (stereo not drawn) | -10% | -10%

Laid out differently: results already given
SMILES	Vaccinia mCherry	VACV Venus inh
COc1ccc(CNc2nn[nH]n2)cc1OC	-11%	-9%
COC(=O)C1=C(C)NC(=S)NC1c1ccco1 (stereo not drawn)	-10%	-10%
COc1ccc(/C=N/NC(=O)c2ccc(Cn3cc([N+](=O)[O-])cn3)o2)cc1O	x	0%
Cc1ccc(S(=O)(=O)c2nnn3c2nc(NC2CCCCCC2)c2sccc23)cc1C	-17%	u
O=C(Nc1ccc(Cl)c(S(=O)(=O)N2CCOCC2)c1)[C@@H]1CCCN1C(=O)c1cccs1	-26%	-10%
COCCOc1cc(N)c(Cl)cc1Cl	-6%	-2%

Remaining list, next part
SMILES | Vaccinia mCherry | VACV Venus inh
Fc1ccccc1/C=C/c1ccc2ccccc2n1 | -4% | -19%
O=C(C[C@H]1C/C=C/CC[C@@H](Cc2ccc(F)cc2)C(=O)OC[C@H](c2ccccc2)NC1=O)NCCO | i | -18%
CCn1c(=O)n(CC(=O)N(C)Cc2ccccc2)c(=O)c2ccccc21 | x | -11%
COc1c(C)cc(S(=O)(=O)NC2CC(C)(C)NC(C)(C)C2)c(C)c1C | -26% | -13%
COc1ccc(NC(=O)c2cccc3c(-c4cnn(C)c4)coc23)cc1 | 26% | -7%
CN(C)C(=O)Oc1ccc[n+](C)c1 | -7%&-15% | -7%&-8%
O=C1C2C3C=CC(C3=C(c3ccccc3)c3ccccc3)C2C(=O)N1Cc1ccccc1 (stereo not drawn) | x | -22%
COc1ccc(Cl)cc1N(CC(=O)NCCSc1ccccn1)S(=O)(=O)c1ccccc1 | u | -4%
CCOC(=O)C1(Cc2cccc(OC)c2)CCN(Cc2cnc(C)s2)CC1 | i | -12%
CN(Cc1ccc(F)cc1)C(=O)c1cc(COc2ccc(-n3cncn3)cc2)on1 | -5% | -20%
Cc1ccc(C)c(NC(=O)COC(=O)c2ccc(S(=O)(=O)N3CCCCC3)cc2)c1 | -9% | -11%
Cc1cc(C)c(NC(=S)NCCCSC2CCCCC2)c(C)c1 | -19% | -8%

Complete entries as entered above. Order of values: Vaccinia mCherry	VACV Venus inh
`Cc1ccc(C)c(NC(=O)COC(=O)c2ccc(S(=O)(=O)N3CCCCC3)cc2)c1` is listed with -9%	-11%
`COC(=O)CN(c1ccc(OC)cc1)S(=O)(=O)c1ccc(OC)c(OC)c1` is listed with -22%	-7%
`COc1ccc(Cl)cc1N(CC(=O)NCCSc1ccccn1)S(=O)(=O)c1ccccc1` is listed with u	-4%
`C[C@H](CO)N1C[C@H](C)[C@@H](CN(C)S(C)(=O)=O)Oc2ccc(NC(=O)CCC(F)(F)F)cc2C1=O` is listed with i	-5%
`Cc1ccc(C)c(C(=O)COC(=O)CN2C(=O)C3C4CCC(C4)C3C2=O)c1` (stereo not drawn) is listed with 4%	-13%

Next part:
SMILES | Vaccinia mCherry | VACV Venus inh
COCc1ccc(-c2c(-c3ccc(OC)cc3)oc(=O)c3cc(OC)c(OC)cc23)cc1 | -12% | -28%
COc1ccc(Cl)cc1NC(=O)c1ccccc1C | x | -20%
O=C(c1c[nH]c2ccc(S(=O)(=O)Nc3ccccc3F)cc2c1=O)N1CCCCCC1 | -10% | -11%
CN(c1ccc(C(=O)N2CCN(c3ccc(F)cc3)CC2)cc1)S(C)(=O)=O | -24% | -15%
COc1cccc(/C=N/Nc2nc(Nc3ccccc3)nc(-n3nc(C)cc3C)n2)c1O | x | u
CN(C)C(CNc1ccc(C(F)(F)F)cn1)c1ccccc1 (stereo not drawn) | u | 1%
CCOP(=O)(OCC)c1nc(/C=C/c2ccccc2)oc1NCc1ccc(OC)cc1 | -28% | -21%
O=C(CCN1C(=O)c2ccccc2C1=O)C1=NN[C@@H]2C(=O)N(c3ccc4c(c3)OCCO4)C(=O)[C@H]12 | i | -15%
COc1cccc(-c2csc3nc[nH]c(=O)c23)c1 | -6% | -16%
C=C(Br)Cn1c(CCC)nc2ccccc21 | x | -17%
Cc1cccc(OCCn2cccc2/C=C2/C(=O)NC(=O)N(Cc3ccco3)C2=O)c1 | i | -8%
Cc1cccc(NC(=O)COC(=O)CN2CCCCCC2=O)c1C | -11% | -9%
COc1cc(C(=O)OCCCN=C2NS(=O)(=O)c3ccccc32)cc(OC)c1OC | -9% | 0%
CC(=O)Nc1ccc(C(=O)N2CCCCC2c2cc(C(=O)Nc3cccc4c3CCCC4)no2)cc1 (stereo not drawn) | -28% | -24%
CNc1nc2cc([N+](=O)[O-])c([N+](=O)[O-])cc2nc1NC | -3% | -19%
COc1cc(NC(=O)c2ccc3c(c2)S(=O)(=O)N=C2CCCCCN23)cc(OC)c1 | i | -13%
Cc1cc(C)c(NC(=O)CSc2nc3ccccc3c3nc(CCn4cncc4C)nn23)c(C)c1 | -18% | u
Cc1ccc(-c2cnc(C(O)c3cc(C)cc(C)c3)[nH]2)cc1 (stereo not drawn) | i | -29%
O=C(CSc1cccc[n+]1[O-])c1ccc(-c2ccccc2)cc1 | -4% | -15%
O=C1c2ccccc2C(c2nnnn2Cc2ccccc2)N1CCc1ccc(O)cc1 (stereo not drawn) | -11% | -5%
O=C(NNc1ccccc1[N+](=O)[O-])NC1CCCCC1 | -20% | -12%
CCCCOc1ccc(C2/C(=C(\O)c3ccc4c(c3)OCCO4)C(=O)C(=O)N2CCCN2CCOCC2)cc1 (stereo not drawn) | i | -9%
COc1ccc(/C=C(/NC(=O)c2ccccc2)C(=O)N2CCOCC2)cc1OC | i | -2%
CC(c1ccncn1)N(C)Cc1nc(Cc2ccccc2F)no1 (stereo not drawn) | -7% | -6%
O=c1c2ccccc2nnn1COc1cccc(Cl)c1 | i | -4%
COc1cc(OC)c(NC(=O)CCc2nc(-c3ccc(C)cc3)no2)cc1Cl | x | -10%
COc1ccc(C2(C(=O)N3CCOCC3)CCCC2)cc1 | x | -8%
COC(=O)c1c(NC(NC(=O)C(C)C)C(Cl)(Cl)Cl)sc2c1CCC2 (stereo not drawn) | -26% | -23%
COc1cc(NC(=O)C2CC(=O)N(Cc3ccco3)C2)cc(OC)c1 (stereo not drawn) | -15% | -1%
CCCn1c(=N)n(CC(=O)c2ccc(Cl)cc2)c2ccccc21 | u | -15%
COc1cccc(-c2sc3ccc(OC)cc3c2C#CC2(O)CCCCC2)c1 | -19% | -24%
CCC(c1nnnn1-c1ccc2c(c1)OCCO2)N1CCN(c2ccccc2OC)CC1 (stereo not drawn) | -13% | -8%
CCCOC(=O)c1c(NC(=O)/C=C/c2cnn(C)c2C)sc(C(=O)OC)c1C | -8% | 1%
CSc1oc(-c2ccccc2)nc1S(=O)(=O)c1ccc(F)cc1 | -29% | -15%
CCOC(=O)CNC(=O)Cc1ccc(Cl)cc1 | i | -7%
Cc1ccc(S(=O)(=O)c2cn(CC(=O)Nc3cccc(Cl)c3)c3ccccc3c2=O)cc1 | -29% | -19%
NC(N)=S | i | -14%
Cc1[nH]c(=O)[nH]c(=O)c1/C=C/C(=O)OCC(C)C | -21% | -17%
CCCc1nnc(NC(=O)CSc2nnc(-c3ccco3)n2C)s1 | -5% | -19%
CNc1cncc(-c2ccc(OC)cc2OC)n1 | i | -15%
CCCc1cc(=O)[nH]c(Nc2ccc3c(c2)OCCO3)n1 | -9% | -1%
NNC(=O)c1ccccc1OCCOc1ccccc1 | -8% | 3%
Cc1cc(C)n(-c2nc(NCCCO)c3c4c(sc3n2)CCCC4)n1 | x | -29%
